Screening results as filed in PubChem.
Ba CapD inh: CapD enzyme inhibition; purified CapD enzyme, fluorescence intensity read-out; active compounds read low; some hits fall short of the stated cut; z-score (no concentration beside the values); 140,000 compounds, 0.23% hits; AID 492967;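 active = z-score under -4 in either of two replicates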;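 also: stock transfer was 100 nL into about 40 µL; score is relative to mean and spread of the plate; one replicate is shown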
AID504770: growth inhibitors of E. coli YBA685 in a screen for V. cholerae RctB (chromosome II replication) inhibitors; E. coli YBA685 rctB-dependent plasmid, OD600 growth, 3 h; active compounds read low; z-score (test concentration not listed); 130,000 compounds, 0.27% hits; AID 504770;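 active = z-score under -2 on both plates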;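 also: wells of about 30 µL received 100 nL stock; score is relative to mean and SD of the test wells; the first replicate is given; strong numbers were not always called active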
* = called active by the depositor; x = not tested or not shown. Not a hit list; 0.41% or so of the library scored in one or more.

Structure	Ba CapD inh	AID504770
N#Cc1ccccc1NC(=O)CSc1ccccn1	0.09	0.4
O=C1CCCN2N=C(SCc3ccccc3F)SC2=N1	0.065	0.3
CCOc1cccc(/C=N/NC(=O)c2[nH]nc(-c3ccccc3)c2C)c1O	0.31	-0.55
O=C(NCc1ccncc1)c1cc2n(n1)C(C(F)(F)F)CC(c1ccco1)N2 (centres undefined)	-0.74	-0.55
COc1ccc(OC(=O)c2cc3ccccc3o2)cc1	-0.09	-0.45
O=C1CCCN1CN1CCN(CN2CCCC2=O)CC1	x	1
CSc1ccccc1NC(=O)CN1CCCC1	x	1.4
O=C(Cn1c(=S)[nH]c2ccccc21)c1ccc(-c2ccccc2)cc1	0.53	1.9
C/C(=N\OCC(=O)O)c1ccc(Br)s1	x	-0.95
CC1(C)CC(=O)C(C=NCc2ccc(F)cc2)=C(O)C1	-0.18	-1.4
COCCNC(=O)c1cc(-c2ccncc2)nc2ccc(S(=O)(=O)N3CCOCC3)cc12	-1.7	1.2
COc1ccc(OC)c(C2C3=C(NCCN=C3c3ccccc3)C(=O)N2c2ccccc2)c1 (centres undefined)	-0.24	x
COc1cccc2c1c(NS(=O)(=O)c1cc(Cl)sc1Cl)nn2C	1	-0.4
COc1ccc(-n2c(-c3ccc(Cl)cc3)csc2=N)cc1OC	-0.25	-1.1
CCc1ccc(Oc2coc3cc(OC(=O)c4cccs4)ccc3c2=O)cc1	-0.65	0.3
CC1C(c2ccccc2)NC(c2ccccc2)C(C)C1(O)c1ccccc1 (centres undefined)	0.2	x
Clc1ccc(-n2ncc3c(N4CCCC4)ncnc32)cc1	0.025	-0.45
COc1ccc(Cn2c(=S)[nH]c3cc(C(=O)Nc4cc(OC)c(OC)c(OC)c4)ccc3c2=O)cc1	-0.37	x
CC(C)N1CCN(S(=O)(=O)c2ccc(Cl)cc2)CC1	x	0.1
COc1ccc(-c2n[nH]c(C(F)(F)F)c2-c2cc3ccccc3o2)c(O)c1	16	-0.65
c1ccc(-c2nc(NC3CCCCC3)c3oc4ccccc4c3n2)cc1	-0.31	x
Cc1cccc(Oc2ccc([N+](=O)[O-])cn2)c1C	-0.15	x
CCC(c1ccccc1)c1nnc(N)s1 (centres undefined)	-0.34	0.65
CSC(SC)=C(C#N)C(=O)c1ccccc1Cl	-4.7*	-1.2
Cc1cc(C(=O)COc2ccc(Cl)cc2Br)c(C)n1C	x	-0.45
CSc1ccccc1C(=O)c1ccccc1C(=O)O	-0.43	1.1
CCCc1cc(-c2[nH]ncc2-c2ccc3c(c2)OCCCO3)c(O)cc1O	3.4	0.85
CC(SCC(=O)Nc1ccc(S(=O)(=O)N(C)C)cc1)C(=O)O (centres undefined)	x	-1.3
Cc1ccc(C(=O)Oc2ccc3c4c(c(=O)oc3c2)CCCC4)cc1	0.68	1.9
Cc1ccc(O)c(C(CC(=O)NC2CCCCC2)c2ccccc2)c1 (centres undefined)	0.21	0.1
Cc1c(NC(=O)CCCN2C(=O)c3cccc4cccc(c34)C2=O)c(=O)n(-c2ccccc2)n1C	38	x
CCC(=O)NCCc1cc2cc(C)c(C)cc2[nH]c1=O	0.32	0.2
CCOc1ccc(C2Oc3c(OC)cccc3C3CC(c4ccc(OC)cc4)=NN32)cc1 (centres undefined)	-0.3	x
C=CCN(CC(=O)O)S(=O)(=O)c1ccccc1C(F)(F)F	x	-0.25
CC1=C(C(=O)OCc2ccccc2)C2(C(=O)Nc3ccccc32)C(C(=O)OCc2ccccc2)=C(N)O1 (centres undefined)	0.28	x
C(#Cc1ccc(-c2ccn[nH]2)cc1)c1ccccc1	18	0.35
O=C(c1ccccc1)C1CCN(S(=O)(=O)c2cc(C(F)(F)F)cc(C(F)(F)F)c2)CC1	0.23	0.35
O=C(CC1(O)C(=O)N(CCc2ccccc2)c2ccc(Cl)cc21)c1ccccc1 (centres undefined)	-0.47	-0.45
CCCC(=O)N1c2ccccc2NC2=C(C(=O)CCC2)C1c1ccc(OC)c(OC)c1 (centres undefined)	-0.22	-0.8
Cc1cc(=O)oc2cc(NC(=O)C3COc4ccccc4O3)ccc12 (centres undefined)	x	1.1
CCN1CCCC1Cn1c(SCc2cc(C(C)=O)ccc2OC)nc2ccccc2c1=O (centres undefined)	2.5	x
Cn1c(SCC(=O)N2CCCCC2)nc2ccccc2c1=O	-0.21	-0.25
O=C(Nc1ccccc1)c1snc2c(=O)[nH]cnc12	x	2.2
Cc1noc(C)c1S(=O)(=O)NCc1ccccn1	1.3	0
COc1ccccc1N1CCN(C(=O)C(OC(C)=O)c2ccccc2)CC1 (centres undefined)	0.045	-0.45
CCc1ccccc1Nc1nc(N)nc(CSc2nnc(-c3cccs3)n2CC2CCCO2)n1 (centres undefined)	x	-0.45
Cc1cc(C)nc(N2CCN(C(=O)CCC(=O)O)CC2)n1	1.9	x
Cn1c(=O)c2c(nc3n(C4CC4)c(-c4ccccc4)cn23)n(C)c1=O	0.85	-0.55

Retrieved by compound from the entries so far (two):
Structure	Ba CapD inh	AID504770
CCN1CCCC1Cn1c(SCc2cc(C(C)=O)ccc2OC)nc2ccccc2c1=O (centres undefined)	2.5	x
O=C(Nc1ccccc1)c1snc2c(=O)[nH]cnc12	x	2.2

The results go on.
Order of values – Ba CapD inh | AID504770
COc1ccc(CCNC(=O)c2c[nH]c3ccc(S(=O)(=O)N4CCCCCC4)cc3c2=O)cc1OC
    0.73 | x
Cc1cc(-c2ccccc2C(=O)NCc2ccccc2)on1
    1.3 | -0.8
Cn1c(=O)c2c(nc(Sc3nc4ccccc4n3CC(=O)NC3CCCCC3)n2C)n(C)c1=O
    0.29 | 0.7
COc1ccc(-c2csc(N/N=C\c3ccc(O)cc3)n2)cc1
    x | 0.45
Cc1ccc(Oc2cc(Oc3ccc(C)cc3)c3noc4c3c2C(=O)c2ccccc2-4)cc1
    0.03 | x
COc1ccc(S(=O)(=O)N(C)c2ccnc(C(=O)N3CCc4ccccc43)c2)cc1
    1.1 | -0.2
Cc1cc(=O)oc2cc(OC(C)C)c(Cl)cc12
    41 | -0.4
O=C(Nc1ccc2c(c1)CS(=O)(=O)C2)c1cccs1
    0.14 | -0.35
CC(C)(C)C(=O)CSc1nc2ccccc2c(=O)n1CCCN1CCCC1=O
    -0.45 | -0.6
O=C(CCCC(=O)c1ccccc1)Nc1ccc(O)cc1
    0.11 | 1.4
C=CCN(CC=C)S(=O)(=O)c1ccc(C(=O)N2CCOCC2)cc1
    0.035 | 0
COC(=O)c1c(-c2ccc(F)c(F)c2)cn2c1SCC2=O
    x | -0.05
CCN(C(=O)c1coc(=O)c2ccccc12)c1cc(OC)ccc1OC
    1 | x
COc1ccc(CNC(=O)CSc2nc3cccnc3s2)cc1
    0.16 | -0.1
FC(F)(F)c1cccc(N2NC3(CCCCC3)NC2=S)c1
    -0.23 | x
CCN(CC)c1ccc(C(=O)OCC(=O)c2ccc(OC(F)F)cc2)cc1
    x | -0.25
Cc1ccc(CNC(=O)c2cn(C)c3ccc(S(=O)(=O)N4CCCC4)cc3c2=O)cc1
    0.01 | -0.45
CCOC(=O)C1=C(C)NC(=S)NC1c1ccc(OCC(=O)N2CCCCC2)cc1 (centres undefined)
    -0.49 | 1
O=C(NCCN1C(=O)CSC1=O)c1ccccc1
    0.065 | -0.35
COc1ccc(-c2nc3ncccc3n2OCc2ccccc2Cl)cc1
    18 | x
Cc1cc(C)c2c(c1)-c1c(ssc1=S)C(C)(C)N2C(=O)CN1CCOCC1
    -0.48 | x
CC(=O)NCCC(=O)Nc1ccc(OC(F)F)cc1
    x | 0
CC(=Nc1ccccc1)Nc1ccccc1
    -0.28 | -0.2
Cc1ccc(-n2nnc(S(=O)(=O)c3ccc(C)cc3)c2N)cc1
    -1.2 | 1.8
N#Cc1c(Cl)cccc1N1CCC(C(=O)N/C=N/O)CC1
    7.2 | 1.2
CCCCCOC(=O)c1ccc(N2C(=O)C3C4c5ccccc5C(c5ccccc54)C3C2=O)cc1 (centres undefined)
    0.34 | x
Nc1ccccc1C(=O)NCc1cccnc1
    104 | x
CCN(CC)C(=O)CN1CCCN(Cc2cccc(C)c2)S1(=O)=O
    0.77 | -1.1
CCCNC(=O)COc1ccc(Br)cc1C
    -0.1 | -0.55
Cc1ccccc1OCC(=O)N1CCCc2ccccc21
    -0.06 | 1.7

One compound at a time (already shown). Screens in order: Ba CapD inh, AID504770
CCCCCOC(=O)c1ccc(N2C(=O)C3C4c5ccccc5C(c5ccccc54)C3C2=O)cc1 (centres undefined) is entered as 0.34, x
CC(C)(C)C(=O)CSc1nc2ccccc2c(=O)n1CCCN1CCCC1=O is entered as -0.45, -0.6

Next records.
Order of values – Ba CapD inh | AID504770
Cc1csc(-c2nonc2N)n1
    x | 0.25
COc1cc(C2NC(=O)NC(C)=C2C(=O)OCC2CCCCC2)ccc1OCc1ccccc1 (centres undefined)
    0.08 | x
CCOc1ccc(NC(=O)Cc2ccccc2OC)cc1
    0.12 | -0.6
O=C(Cc1cccs1)Nc1noc2ccccc12
    -0.04 | 1.1
CCc1nc2ccc(C(=O)NCc3ccc(F)cc3)cc2nc1CC
    -0.45 | x
CC(C)CC(=O)N1CCN(c2ccc(F)cc2)CC1
    0.62 | 0.95
O=C1c2ccccc2C(O)(c2ccccc2)N1C1CCCC1 (centres undefined)
    -0.65 | -0.1
CN1C(=S)N(C2CCCCC2)C(=O)/C1=C/c1ccc(-c2ccc(Br)cc2)o1
    0.13 | -0.05
FC(F)Oc1ccc(NC(=S)NC2CCCC2)cc1
    x | -0.65
CC(=O)OC(OC(C)=O)C12C=CC(O1)C1C(=O)N(c3cc([N+](=O)[O-])ccc3Cl)C(=O)C12 (centres undefined)
    -0.05 | x
CS(=O)(=O)c1nc(Oc2cccc(C(F)(F)F)c2)cc(Oc2cccc(C(F)(F)F)c2)n1
    0.33 | -0.35
CN(C)S(=O)(=O)N1CCN(C(=O)c2ccco2)CC1
    -0.17 | -0.4
N#CCSc1ncc(C(F)(F)F)cc1Cl
    0.17 | -0.5
O=C1CCCN2N=C(SCC(=O)N3CCC(Cc4ccccc4)CC3)SC2=N1
    0.47 | 0.45
Cc1c(N2CCCC2)cc2c(c1N)C(C)(C)CC2(C)C
    0.54 | -0.9
Cc1cc2c(c(SCc3ccccc3Cl)n1)C(=O)OC2
    -0.26 | 0
CCN(CC)Cc1cc(C(=O)O)c(-c2ccccc2)o1
    2 | -0.15
Cc1cc(N=Cc2c(O)n(-c3ccc(C)c(C)c3)c(=O)c3ccccc23)no1
    x | 0.55
COc1cccc(CNC(=O)CSC)c1
    x | -1.5
O=c1[nH]nc(SCc2cccc3ccccc23)c(=O)[nH]1
    x | 2.8
COC(=O)c1ccc(NC(=O)CNC2CCCCCC2)cc1
    x | -1.1
CC(C)(C)C(=O)CC(=O)Nc1ccc(Cl)c(N)c1
    0.33 | -0.45
CCc1ccc(OCCCC(=O)O)c(Br)c1
    0.58 | 0.3
COc1ccc(N2C(=O)CC(Sc3nc(CC(C)C)ccc3C#N)C2=O)cc1 (centres undefined)
    -0.16 | x
O=C(Oc1ccc2c(c1)OCO2)[C@@H]1CCCN1S(=O)(=O)c1ccc(Cl)cc1
    x | 0.2
CN(CCOc1ccc(Br)cc1)C(=O)c1n[nH]c2ccccc12
    x | 0.1
Cc1nc2ccc(Cl)cc2c2c1C(=O)N(CCc1ccccn1)C2=O
    0.055 | x
CN(C)c1ccc(C(=O)Cc2ccccc2Cl)cc1
    4.9 | 0.8
O=C(CSc1nnc(Cc2cccs2)n1C1CCCCC1)N1CCCc2ccccc21
    x | 0.3
CCCN1CCC(N(C2CC2)S(=O)(=O)c2cccc(C(F)(F)F)c2)CC1
    -0.29 | x

A stretch from further up:
Order of values – Ba CapD inh | AID504770
Cc1cc2c(c(SCc3ccccc3Cl)n1)C(=O)OC2
    -0.26 | 0
CCN(CC)Cc1cc(C(=O)O)c(-c2ccccc2)o1
    2 | -0.15
Cc1cc(N=Cc2c(O)n(-c3ccc(C)c(C)c3)c(=O)c3ccccc23)no1
    x | 0.55
COc1cccc(CNC(=O)CSC)c1
    x | -1.5
O=c1[nH]nc(SCc2cccc3ccccc23)c(=O)[nH]1
    x | 2.8
COC(=O)c1ccc(NC(=O)CNC2CCCCCC2)cc1
    x | -1.1

(further entries)
Order of values – Ba CapD inh | AID504770
CCn1ncc(NCCNc2ncc(C(F)(F)F)cc2Cl)c(Cl)c1=O
    -0.065 | x
COc1ccc(S(=O)(=O)N(CC(=O)Nc2c(C)n(C)n(-c3ccccc3)c2=O)c2ccc(C)cc2)cc1
    -0.2 | x
CC(C)(C)S(=O)c1cccs1 (centres undefined)
    0 | -0.65
Cc1cc(-c2ccccc2)nc2oc(C(=O)c3ccc(Cl)cc3)c(N)c12
    1.4 | -0.55
O=S(=O)(Nc1ncccn1)c1ccc(NC(=S)NCCN2CCOCC2)cc1
    x | -0.6
Cc1ccccc1CN1CCN(CC(=O)NCc2cccs2)C1=O
    0.06 | -0.75
Cc1onc(-c2ccccc2)c1C(=O)n1nnc2ccccc21
    79 | 0.5
CCc1ccccc1Nc1ccc(C(=O)O)cn1
    x | -0.35
CCOc1ccc(/C=C2\CN(C)CC3=C2OC(N)=C(C#N)C3c2ccc(OCC)cc2)cc1 (centres undefined)
    -0.48 | x
COc1cc(C(=O)O/N=C(\N)c2ccc3c(c2)OCO3)cc(OC)c1OC
    -0.26 | x
Cc1nc(-c2ccccc2)nc2[nH]c(C(C)C)cc(=O)c12
    -0.7 | 1.8
Cc1ccc(S(=O)(=O)Nc2ccccc2/C(O)=C(\C#N)c2nc3ccccc3n2C)cc1
    -0.84 | 1.2
Cc1ccc(C(=O)Nc2ccc(-c3nc4ccccc4o3)c(O)c2)cc1
    0.32 | -0.25
COC(=O)C1CN(C(=O)c2cccs2)c2ccccc2O1 (centres undefined)
    -0.22 | 0.2
Cc1ccc(Sc2ncccc2-n2c(C)ccc2C)cc1
    -0.35 | x
